A1 apoptosis 2: A1 inhibition read as caspase activation; MEF A1-2A-BIM cells, caspase-Glo luminescence, 3 h; percent of clofoctol response, DMSO zero; caspase activation, % (concentration not given with the values); 24,000 tested, under 10 active; AID 2465; in the data active means caspase activation above about 5.9%;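 further: wells of about 30 µL received 50 nL stock; the first replicate is given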
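system = A1-2A-BIM-expressing MEF cells | quantity = 2500 MEF cells/well | dosing = 50 nL compound per well, pinned | schedule = overnight cell settling, then 3 h compound exposure, 37 °C | signal = luminescence from DEVD-luciferin Caspase-Glo reagent, 1:1 in 50 mM HEPES, 1 h RT | read-out = Caspase-3/7 activation, seen as rise in luminescence signal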
Starred values were filed as active, the others as inactive. An excerpt; count on the stated rates, not on these rows.

Molecule	A1 apoptosis 2
Cc1noc(C)c1S(=O)(=O)N(C)C[C@@H]1OCCCC[C@H](C)Oc2ccc(N(C)C)cc2C(=O)N([C@H](C)CO)C[C@@H]1C	0.6
CC(C)NC(=O)Nc1ccc2c(c1)C(=O)N([C@H](C)CO)C[C@H](C)[C@@H](CN(C)C(=O)Cc1ccccc1)OCCCC[C@@H](C)O2	-0.5
COc1ccc(S(=O)(=O)Nc2ccc3c(c2)C(=O)N([C@@H](C)CO)C[C@@H](C)[C@@H](CN(C)S(=O)(=O)c2ccc(OC)cc2)O3)cc1	0.2
C[C@@H]1CCCCO[C@H](CN(C)CC2CCCCC2)[C@H](C)CN([C@H](C)CO)C(=O)c2cc(NC(=O)CCC(F)(F)F)ccc2O1	-0.2
COc1ccc(NC(=O)Nc2ccc3c(c2)C(=O)N([C@H](C)CO)C[C@@H](C)[C@H](CN(C)S(=O)(=O)c2ccc(OC)cc2)OCCCC[C@H](C)O3)cc1	-1.0
C[C@H](CO)N1C[C@H](C)[C@H](CN(C)Cc2ccc(C(=O)Nc3ccccc3N)cc2)Oc2c(NC(=O)C3CCOCC3)cccc2C1=O	0.2
COc1ccc(Br)c(/C=N/NC(=O)c2ccc(C(=O)NO)cc2)c1	0.1
C[C@H]1CN([C@@H](C)CO)C(=O)c2cc(NS(=O)(=O)c3ccccc3)ccc2O[C@H]1CN(C)C	-0.2
C[C@H](CO)N1C[C@H](C)[C@@H](CN(C)Cc2ccccc2)Oc2ccc(NC(=O)CCC(F)(F)F)cc2C1=O	0.0
C[C@@H]1CN([C@H](C)CO)C(=O)Cc2cc(NC(=O)Nc3ccccc3)ccc2O[C@H]1CN(C)CC1CC1	0.0
C[C@H]1CN([C@@H](C)CO)C(=O)c2cc(NS(=O)(=O)c3ccc(F)cc3)ccc2O[C@H]1CN(C)Cc1ccc(-c2ccccc2)cc1	-1.0
C[C@@H]1CN([C@H](C)CO)C(=O)Cc2cc(NC(=O)Cn3cnnn3)ccc2O[C@H]1CN(C)CC1CCCCC1	-0.6
C[C@@H]1CN([C@H](C)CO)C(=O)c2cccc(NC(=O)c3ccc(-c4nccs4)cc3)c2O[C@@H]1CN(C)C(=O)NC1CCCCC1	1.6
C[C@H]1CN([C@@H](C)CO)C(=O)c2cc(NC(=O)Nc3ccccc3)ccc2O[C@@H]1CN(C)Cc1ccc(Cl)c(Cl)c1	-0.5
Cc1ccc(S[C@]2(C(=O)NCCCN(C)C)CC(=O)N(C3CCCCC3)[C@@H]2c2ccc(CO)cc2I)cc1	0.2
COc1ccc(S(=O)(=O)Nc2ccc3c(c2)CC(=O)N([C@@H](C)CO)C[C@H](C)[C@@H](CN(C)C(=O)NC2CCCCC2)O3)cc1	-1.5
COc1cc(OC)c(/C=N/NC(=O)CCCCCCC(=O)Nc2ccccc2O)c(OC)c1	-0.4
C[C@H](CO)N1C[C@H](C)[C@H](CN(C)Cc2ccc3c(c2)OCO3)Oc2ccc(NC(=O)C3CCCCC3)cc2C1=O	1.5
Cc1ccc(S(=O)(=O)Nc2ccc3c(c2)C(=O)N([C@@H](C)CO)C[C@H](C)[C@@H](CN(C)Cc2ccc4c(c2)OCO4)OCCCC[C@H](C)O3)cc1	0.6
C[C@H]1CCCCO[C@@H](CN(C)S(=O)(=O)c2ccccc2)[C@@H](C)CN([C@@H](C)CO)C(=O)c2cc(NS(=O)(=O)c3ccc(F)cc3)ccc2O1	0.2
CC(C)NC(=O)Nc1ccc2c(c1)CC(=O)N([C@H](C)CO)C[C@H](C)[C@@H](CN(C)S(=O)(=O)c1ccccc1)O2	0.4
C[C@@H]1CN([C@H](C)CO)C(=O)c2cccc(NC(=O)NC3CCCCC3)c2O[C@H]1CN(C)Cc1ccncc1	0.2
COc1ccc(NC(=O)N(C)C[C@H]2Oc3ccc(NS(=O)(=O)c4ccc(OC)cc4)cc3CC(=O)N([C@H](C)CO)C[C@@H]2C)cc1	-0.1
COc1ccc(NC(=O)Nc2ccc3c(c2)C(=O)N([C@@H](C)CO)C[C@@H](C)[C@H](CN(C)C(=O)NC(C)C)O3)cc1	-0.5
Cc1noc(C)c1S(=O)(=O)N(C)C[C@H]1Oc2ccc(NS(=O)(=O)c3cn(C)cn3)cc2C(=O)N([C@@H](C)CO)C[C@H]1C	0.0

New compounds follow:
Molecule	A1 apoptosis 2
C[C@@H]1CN([C@H](C)CO)C(=O)Cc2cc(NC(=O)NC3CCCCC3)ccc2O[C@H]1CN(C)Cc1ccc(C(=O)O)cc1	1.1
C[C@H]1CN([C@@H](C)CO)C(=O)CCCn2cc(nn2)CO[C@H]1CN(C)Cc1ccc(C(F)(F)F)cc1	-0.8
O=C(N/N=C/c1cccnc1Br)c1ccccn1	-8.3
CC(C)NC(=O)N(C)C[C@H]1OCCCC[C@@H](C)Oc2ccc(NS(=O)(=O)c3cccs3)cc2C(=O)N([C@H](C)CO)C[C@H]1C	0.3
CCCC(O)C#Cc1cnc2c(c1)C(=O)N([C@H](C)CO)C[C@H](C)[C@H](CN(C)Cc1ccccc1)O2 (some centres not stated)	0.3
C[C@@H]1CCCCO[C@H](CN(C)C(=O)C2CCCCC2)[C@@H](C)CN([C@@H](C)CO)C(=O)c2cc(NC(=O)Nc3ccc(F)cc3)ccc2O1	-0.2
CC(C)NC(=O)Nc1ccc2c(c1)C(=O)N([C@H](C)CO)C[C@@H](C)[C@H](CN(C)S(=O)(=O)c1ccc(Cl)cc1)O2	1.1
C[C@@H]1CCCCO[C@@H](CN(C)C(=O)C2CCCCC2)[C@@H](C)CN([C@H](C)CO)C(=O)c2cc(NC(=O)CCCCCC(=O)Nc3ccccc3N)ccc2O1	-0.7
COc1ccc(NC(=O)Nc2cccc3c2O[C@@H](CN(C)S(=O)(=O)c2ccc(F)cc2)[C@H](C)CN([C@H](C)CO)C3=O)cc1	-0.6
C[C@H]1CN([C@@H](C)CO)C(=O)c2cccc(NC(=O)c3cnccn3)c2O[C@H]1CN(C)C(=O)NC1CCCCC1	0.3
O=C(CCCCCCC(=O)Nc1ccccc1O)N/N=C/c1ccc(N2CCCC2)cc1	-1.2
C[C@@H]1CCCCO[C@@H](CN(C)Cc2ccccc2)[C@@H](C)CN([C@@H](C)CO)C(=O)c2cc(NC(=O)Nc3ccc4c(c3)OCO4)ccc2O1	-0.2
C[C@@H]1CN([C@@H](C)CO)C(=O)c2cccc(NS(=O)(=O)c3ccc(Cl)cc3)c2O[C@@H]1CN(C)C	0.3
C[C@@H]1CCCCO[C@@H](CN(C)C(=O)c2ccccc2)[C@@H](C)CN([C@H](C)CO)C(=O)c2cc(NS(=O)(=O)c3cn(C)cn3)ccc2O1	0.5
C[C@H](CO)N1C[C@H](C)[C@H](CN(C)S(=O)(=O)c2ccccc2)Oc2ncccc2C1=O	-0.9
COc1ccc(NC(=O)Nc2ccc3c(c2)CC(=O)N([C@H](C)CO)C[C@@H](C)[C@@H](CN(C)C(=O)Nc2ccc(C(F)(F)F)cc2)O3)cc1	1.9
C[C@H](CO)N1C[C@H](C)[C@H](CN(C)C(=O)NC2CCCCC2)Oc2c(NC(=O)c3nc4ccccc4s3)cccc2C1=O	-0.3
COc1ccc(CN(C)C[C@H]2Oc3c(NC(=O)Nc4c(C)noc4C)cccc3C(=O)N([C@H](C)CO)C[C@H]2C)cc1	1.1
COc1ccc(-c2cnc3c(c2)C(=O)N([C@H](C)CO)C[C@H](C)[C@H](CN(C)S(=O)(=O)c2cccc(F)c2)O3)cc1	-0.8
C[C@H](CO)N1C[C@H](C)[C@@H](CN(C)S(=O)(=O)c2cn(C)cn2)Oc2ccc(NC(=O)Cc3cn(C)c4ccccc34)cc2C1=O	0.3
COc1ccc(S(=O)(=O)N(C)C[C@@H]2Oc3c(NC(=O)c4ccc(-c5nccs5)cc4)cccc3C(=O)N([C@H](C)CO)C[C@@H]2C)cc1	0.8
COc1ccc(S(=O)(=O)N(C)C[C@H]2Oc3c(NC(=O)NC4CCCCC4)cccc3C(=O)N([C@@H](C)CO)C[C@@H]2C)cc1	-0.4
C[C@H]1CN([C@@H](C)CO)C(=O)c2cc(NC(=O)c3ccncc3)ccc2O[C@@H]1CN(C)Cc1ccc(Cl)c(Cl)c1	-0.4
C[C@H]1CN([C@@H](C)CO)C(=O)c2cccc(NC(=O)Nc3ccc4c(c3)OCO4)c2O[C@@H]1CN(C)S(=O)(=O)c1ccccc1	0.1
COc1ccc(NC(=O)Nc2ccc3c(c2)CC(=O)N([C@H](C)CO)C[C@@H](C)[C@H](CN(C)S(=O)(=O)c2ccc(F)cc2)O3)cc1	0.6
CC(C)NC(=O)N(C)C[C@@H]1Oc2c(NC(=O)C3CC3)cccc2C(=O)N([C@@H](C)CO)C[C@H]1C	0.4
Cc1noc(C)c1S(=O)(=O)N(C)C[C@H]1Oc2ccc(NC(=O)C3CCCCC3)cc2CC(=O)N([C@H](C)CO)C[C@H]1C	-0.5

Arranged by length of the SMILES (ascending): part of the list above
Molecule	A1 apoptosis 2
O=C(N/N=C/c1cccnc1Br)c1ccccn1	-8.3
C[C@H]1CN([C@@H](C)CO)C(=O)c2cc(NS(=O)(=O)c3ccccc3)ccc2O[C@H]1CN(C)C	-0.2
C[C@H](CO)N1C[C@H](C)[C@@H](CN(C)Cc2ccccc2)Oc2ccc(NC(=O)CCC(F)(F)F)cc2C1=O	0.0
C[C@H](CO)N1C[C@H](C)[C@H](CN(C)Cc2ccc3c(c2)OCO3)Oc2ccc(NC(=O)C3CCCCC3)cc2C1=O	1.5
COc1ccc(-c2cnc3c(c2)C(=O)N([C@H](C)CO)C[C@H](C)[C@H](CN(C)S(=O)(=O)c2cccc(F)c2)O3)cc1	-0.8
COc1ccc(S(=O)(=O)N(C)C[C@H]2Oc3c(NC(=O)NC4CCCCC4)cccc3C(=O)N([C@@H](C)CO)C[C@@H]2C)cc1	-0.4
C[C@H](CO)N1C[C@H](C)[C@H](CN(C)Cc2ccc(C(=O)Nc3ccccc3N)cc2)Oc2c(NC(=O)C3CCOCC3)cccc2C1=O	0.2
COc1ccc(S(=O)(=O)Nc2ccc3c(c2)CC(=O)N([C@@H](C)CO)C[C@H](C)[C@@H](CN(C)C(=O)NC2CCCCC2)O3)cc1	-1.5
COc1ccc(NC(=O)Nc2ccc3c(c2)CC(=O)N([C@H](C)CO)C[C@@H](C)[C@H](CN(C)S(=O)(=O)c2ccc(F)cc2)O3)cc1	0.6
COc1ccc(NC(=O)Nc2ccc3c(c2)CC(=O)N([C@H](C)CO)C[C@@H](C)[C@@H](CN(C)C(=O)Nc2ccc(C(F)(F)F)cc2)O3)cc1	1.9
COc1ccc(NC(=O)Nc2ccc3c(c2)C(=O)N([C@H](C)CO)C[C@@H](C)[C@H](CN(C)S(=O)(=O)c2ccc(OC)cc2)OCCCC[C@H](C)O3)cc1	-1.0

Bioassay records as filed in PubChem.
